# Bioassay records (PubChem BioAssay)
# VDR inhibitor – vitamin D3 receptor (human) inhibition; P11473; VDR-SRC2-3 peptide fluorescence polarization, 2 h; hit rate 0.93% among 400,000; Potency, µM, for inactives: max response, negative = inhibition, usual class: inhibitors; AID 504847; active = well fitted inhibition curve with a large enough effect; inconclusive = small, poorly fitted or top-dose-only effect, or another doubt; inactive = no such curve, though single readings can be large or run the other way; note: series mostly up to about 120 µM
# Target sequence (P11473 whole entry, looked up): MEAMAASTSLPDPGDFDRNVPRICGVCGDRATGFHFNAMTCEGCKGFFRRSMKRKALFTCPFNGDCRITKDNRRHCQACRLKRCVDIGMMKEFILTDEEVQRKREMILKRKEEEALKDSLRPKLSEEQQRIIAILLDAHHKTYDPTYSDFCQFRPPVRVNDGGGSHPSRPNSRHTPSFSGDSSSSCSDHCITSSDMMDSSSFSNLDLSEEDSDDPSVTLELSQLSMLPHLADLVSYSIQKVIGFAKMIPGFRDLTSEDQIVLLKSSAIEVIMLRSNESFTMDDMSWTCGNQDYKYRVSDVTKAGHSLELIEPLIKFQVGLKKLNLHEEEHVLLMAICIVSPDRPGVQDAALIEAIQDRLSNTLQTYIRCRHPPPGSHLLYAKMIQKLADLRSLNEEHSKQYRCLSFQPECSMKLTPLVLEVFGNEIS
#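 Signal is fluorescence polarization, reporting how far test compounds block the interaction of VDR with the SRC2-3 coregulator peptide after a 2 h room-temperature incubation.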
# Numbers without * were called inactive; ? = inconclusive; & = joins results of further samples. % is set by controls: 0 for no effect and ±100 for the full control effect; potency is the fitted concentration of half-maximal effect. The list is partial; the hit share may differ from the screen's.
SMILES,VDR inhibitor
CCCNC(=O)c1nc2ncc(Br)cn2n1,10%
O=C(COC(=O)CC12CC3CC(CC(C3)C1)C2)Nc1cccnc1Cl,-10%
Clc1ccc(C2=C3CCCCn4c(-c5ccccc5)c[n+](c43)C2)cc1,-4%
CCOP(=O)(OCC)c1nc(-c2cccc([N+](=O)[O-])c2)oc1N1CCCCC1,-5%
CCN(CC)C(=O)CSc1nc(-c2cccs2)cc(-c2cccs2)c1C#N,?
Cc1ccccc1CNC(=O)Cc1cccs1,1%
CC(=O)Nc1cccc(Cl)c1C(=O)O,9%
COc1ccc(-n2cnnc2SCC(=O)Nc2nc(C)c(Cl)cc2Cl)cc1,15%
CCOC(=O)C1CCN(C(=O)C2CCN(S(=O)(=O)CC)CC2)CC1,-10%
COc1ccc(-c2nnc(SCC(=O)N3CCN(c4ccccc4)CC3)o2)cc1OC,?
CC(=O)CSc1nc(N(C)C)nc(N(C)C)n1,3%
Cc1ccc(S(=O)(=O)CC(=O)Nc2sc3c(c2C#N)CCCC3)cc1,2%
COc1cc(NS(=O)(=O)c2ccc(Nc3nc(-c4cccc([N+](=O)[O-])c4)cs3)cc2)nc(OC)n1,8%
Cc1cc(C(=O)NN=C2CC(=O)CC(C)(C)C2)c(C)o1,6%
COc1ccc(/C=N/Nc2cc(C)nc(N3CCOCC3)n2)cc1,13%
CC(C)CN(C(=O)COC(=O)c1ccccc1Sc1ccccc1C#N)C1CCS(=O)(=O)C1 (configuration not stated),-10%

# Some of the entries above in a different format.
VDR inhibitor	structure
-10%	O=C(COC(=O)CC12CC3CC(CC(C3)C1)C2)Nc1cccnc1Cl
-4%	Clc1ccc(C2=C3CCCCn4c(-c5ccccc5)c[n+](c43)C2)cc1
-5%	CCOP(=O)(OCC)c1nc(-c2cccc([N+](=O)[O-])c2)oc1N1CCCCC1
?	CCN(CC)C(=O)CSc1nc(-c2cccs2)cc(-c2cccs2)c1C#N
1%	Cc1ccccc1CNC(=O)Cc1cccs1

# (cont.)
SMILES,VDR inhibitor
Cc1nc2ccc(S(=O)(=O)Nc3cc(-c4nc5cccnc5s4)ccc3C)cc2s1,-10%
CCOc1ccc(C2c3[nH]c4ccccc4c3CCN2CCCn2cccn2)cc1 (configuration not stated),-13%
O=C(/C=C/Nc1ccc(F)cc1)c1ccc(Oc2ncccn2)cc1,3%
O=c1oc2ccccc2c2c1C(c1ccc(Cl)cc1)Nc1ccc3ccccc3c1-2 (configuration not stated),-8%
Cc1ccc(NCC(=O)c2ccc(C)cc2)cc1,-4%
CC(C)C1(C2CCCC2)NC(=O)NC1=O (configuration not stated),-4%
COc1ccc(S(=O)(=O)N2CCN(C(=O)Cc3cccs3)CC2)cc1,-13%
CCOC(=O)c1c(-c2ccc(-c3ccccc3)cc2)csc1NC(=O)C1C2CCC(O2)C1C(=O)O (configuration not stated),-20%
O=C(OCC(=O)N1CCc2ccccc2C1)c1cccnc1Cl,-3%
CCN(CC1CCCO1)C(=O)CCc1nnc(Cc2ccc3c(c2)OCO3)o1 (configuration not stated),-13%
Cc1ccccc1/C=N/Nc1ncnc2nc[nH]c12,-12%
O=C(CN1CCN(C(c2ccccc2)c2ccccc2)CC1)NC(=O)NCc1ccco1,-6%
O=C(CSc1nc(C(F)(F)F)cc(=O)[nH]1)N1CCC(Cc2ccccc2)CC1,5%
O=C(COC(=O)c1ccco1)Nc1ccc([N+](=O)[O-])cc1Cl,5%
CCOc1ccc(NC(=O)CC2C(=O)N(c3ccccc3)C(=O)N2CCc2cccs2)cc1 (configuration not stated),-6%&10%
CCCOc1cccc(C2c3c(oc4ccc(F)cc4c3=O)C(=O)N2CCc2ccc(OC)cc2)c1 (configuration not stated),-8%
CCOc1ccc(NC(=O)CSc2nnc(-c3ccc(OCC)cc3)o2)cc1,10%
O=C(Cc1cccs1)Nc1ccccc1NC(=O)Cc1cccs1,4%
Cc1ccccc1OCCc1c(C)[nH]c(=S)[nH]c1=O,13%
Cc1ccc(C(C)C)c(OCCN2C(=O)NC(C)(C)C2=O)c1,13%
Cc1cc2oc3c(c(=O)c2cc1C)C(c1ccc(F)cc1)N(CCCN1CCOCC1)C3=O (configuration not stated),-14%
Cc1cccc(N2CCN(C(=O)C3CCN(S(=O)(=O)c4cccc5nsnc45)CC3)CC2C)c1 (configuration not stated),-4%
CCCOC(=O)C1=C(C)NC2=C(C(=O)CC(C)(C)C2)C1c1ccc(N(C)C)cc1 (configuration not stated),5%
COc1ccc(C(=O)N2CCC(n3nccc3NC(=O)C3CC3)CC2)c(OC)c1OC,-2%

# Pulled by structure from the list above (three):
SMILES,VDR inhibitor
O=C(Cc1cccs1)Nc1ccccc1NC(=O)Cc1cccs1,4%
CCCOC(=O)C1=C(C)NC2=C(C(=O)CC(C)(C)C2)C1c1ccc(N(C)C)cc1 (configuration not stated),5%
Cc1ccccc1OCCc1c(C)[nH]c(=S)[nH]c1=O,13%

# Later entries.
SMILES,VDR inhibitor
O=C(Nc1ccc(N2CCOCC2)cc1)C1(c2ccc(Cl)cc2)CCC1,4%
COc1ccc(C(=O)C2CCCN(C(=O)c3ccc(C(C)=O)s3)C2)c(C)c1 (configuration not stated),-1%
CCN(C[C@H]1N[C@@](C)(C(=O)OC)[C@H]2C(=O)N(Cc3ccccc3)C(=O)[C@@H]12)C(=O)Nc1ccc(Cl)cc1,5%
CON(C)C(=O)CC(CNC(=O)OC(C)(C)C)c1ccc(Cl)cc1 (configuration not stated),2%
O=C(CN1CCN(c2ccccn2)CC1)NCCc1ccccc1,-1%
Cn1c(SCC(=O)N2CCOCC2)nnc1-c1ccncc1,2%
O=C(NCc1ccc2c(c1)OCO2)Nc1cccc2ccccc12,7%
Cc1c(-c2nsc(NC(=O)c3ccccc3)n2)nnn1-c1ccc(C(F)(F)F)c(Cl)c1,-8%
CCc1nnc(NC(=O)CSc2nnc(CSc3nc(C)cc(C)n3)o2)s1,1%
O=S(=O)(Nc1cccc2ncccc12)c1cccs1,0%
CCOc1ccccc1NC(=O)Cn1c(=O)n(CCC(=O)NCc2ccc3c(c2)OCO3)c(=O)c2ccccc21,2%
Cc1ccsc1CN(C)C(=O)C(NC(=O)c1cccc(S(=O)(=O)N2CCOCC2)c1)C(C)C (configuration not stated),-5%
Cc1ccc(O)c(CNc2ccc(S(=O)(=O)Nc3nccs3)cc2)c1,0%
CCn1cnnc1SCC(=O)Nc1ccccc1C(=O)NC1CC1,0%
Cc1[nH]n(-c2ccccc2)c(=O)c1C(C[N+](=O)[O-])c1ccccc1Cl (configuration not stated),-20%
CCN(CC(=O)Nc1ccc2c(c1)OCCO2)C(=O)C(C)Oc1ccc(F)cc1 (configuration not stated),2%
c1ccc(Cn2cc(CSc3ccccc3)nn2)cc1,-5%
COc1ccc(CCn2c(C)nc3ccccc3c2=O)cc1OC,1%
Cc1ncc(CN2CCC(CO)(CCOc3ccccc3)CC2)s1,-7%
CCc1ccc(/C=C/C(=O)c2cc(Br)ccc(=O)c2O)cc1,20µM*
OCC[C@@H]1C[C@@H](O)[C@H](O)[C@]2(CCCCO2)O1,-9%
COc1ccc(NC(=O)CC2C(=O)NCCN2C(=O)c2ccc(Cl)cc2)cc1 (configuration not stated),-9%
O=C(c1ccc2ncsc2c1)N1CCCCC1,-10%
CCc1ccc2c(c1)-c1ccccc1S(=O)(=O)N2CC(=O)N1CCCCC1,15%
CNC(=O)C1CC(=O)N(Cc2ccc3c(c2)OCO3)C(=Nc2ccc(OC)cc2)S1 (configuration not stated),21%
O=C(NCCN1CCOCC1)c1ccc2ccccc2n1,3%
O=C(NCc1cccs1)c1cccc(N2CCCC2=O)c1,3%
Cc1ccc(SCCC(=O)Nc2ccccc2C(=O)N2CCOCC2)cc1,-7%
O=C(CC(=O)Nc1ccc(Cl)c(Cl)c1)N/N=C/c1ccc(O)cc1,-11%
CC1CCCN(C(=O)Cn2nnc(-c3ccccc3F)n2)C1 (configuration not stated),-10%
O=C(NCC1CCCN(Cc2ccc3nonc3c2)C1)c1ccc(F)cc1 (configuration not stated),-12%
CCc1ccc(NC2=CC(=O)CC(C)(C)C2)cc1,-11%

# VDR inhibitor, what is marked active above
SMILES,VDR inhibitor
CCc1ccc(/C=C/C(=O)c2cc(Br)ccc(=O)c2O)cc1,20µM*

# New compounds follow.
SMILES,VDR inhibitor
c1ccc(N2CCN(Cc3ccnc4ccccc34)CC2)cc1,2%
CCOc1ccccc1NC(=O)C(CC)Sc1nc2ccncc2[nH]1 (configuration not stated),-12%&7%
COc1ccc(C2Nc3ccccc3C(=O)N2c2ccccc2)cc1CN1CCOCC1 (configuration not stated),-16%
Cc1cc(C)nc(Nc2n[nH]c(COc3ccccc3)n2)n1,?
O=C(Nc1cnc2ccccc2c1)c1cccnc1,16%
Cc1cccc2c1Sc1ccccc1CC2=O,-6%
O=C(COC(=O)c1nc(Cl)c(Cl)c(Cl)c1Cl)c1ccc[nH]1,-10%
C=C(C)CSc1nc2ncccc2[nH]1,12%
COc1cc(C2c3cc4c(cc3OC(N3CCOCC3)C2C)OCO4)cc(OC)c1OC(C)=O (configuration not stated),-10%
CCC1(CC)C(=O)NC(=O)NC1=S,-7%
O=C(NCCc1ccco1)C(=O)NCC1OCCCN1S(=O)(=O)c1ccccc1 (configuration not stated),-10%
O=C(CC1Sc2ccccc2NC1=O)NNc1ccc(F)cc1 (configuration not stated),-19%
COc1ccc(CCNC(=O)CSc2ccc(Br)cc2)cc1OC,-1%
CN(C)CCCC(=O)c1ccc2c(c1)OCO2,-20%
O=C(COc1ccc([N+](=O)[O-])cc1)Nc1ccc(S(=O)(=O)N2CCOCC2)cc1,-18%
CCN1CCN(C(=S)NCc2ccc(C)cc2)CC1,-2%
O=C(O)CCc1nn2c3ccccc3n(CCO)c2nc1=O,-12%
CC1=C(C)CC(C(=O)NCCCN2CCCC2=O)C(C(=O)O)C1 (configuration not stated),2%
Cn1c(CN2CCCC2)nc2cc(NS(=O)(=O)c3ccccc3)ccc21,4%
Cc1ccc(C(=O)NCCc2nnc3c(C(F)(F)F)cc(Cl)cn23)o1,-1%
CC1CCCC(NC(=O)Cc2ccc(Br)cc2)C1C (configuration not stated),5%
CSC1=C(C#N)C(c2ccc(C(C)C)cc2)CC(=O)N1 (configuration not stated),3%
COc1cccc(/C=N/NC(=O)Cn2nc(C)c([N+](=O)[O-])c2C)c1O,-12%
COc1ccccc1Cn1c(=S)[nH]c2cc(C(=O)N3CCCC3)ccc2c1=O,-15%
CCOC(=O)c1ccc(NC(=O)CN2C(=O)C(=O)N(CC(C)C)C2=O)cc1,-6%
O=C(CSc1ccccc1)N1CCN(S(=O)(=O)c2ccccc2F)CC1,17%
OCc1c[nH]c(=S)n1CCOc1cccc(C(F)(F)F)c1,-9%
CCOc1cccc(CC(=O)N2CCc3c([nH]c4ccccc34)C2c2ccccc2)c1OCC (configuration not stated),-1%
COCCn1c(SCc2ccccc2)nc2c1c(=O)[nH]c(=O)n2C,4%
Cc1ccc(C2CC(=O)C(C=NCCN3CCN(CC(=O)Nc4cc(C)cc(C)c4)CC3)=C(O)C2)cc1 (configuration not stated),2%
Clc1ccccc1OCCn1nnc2ccccc21,17%
Cc1nc(N2CCCC2)c2c(C(=O)N3CCN(c4ccccc4)CC3)c(C)oc2n1,-11%
O=C(NC1CCCCC1)C(=S)N1CCCC1,14%
CC(=O)Oc1ccc(C23c4ccccc4C2(OC(C)=O)c2cc(OC(C)=O)ccc23)cc1 (configuration not stated),-7%
CC(=O)Nc1ccc(/C=N/Nc2nc3ccccc3[nH]2)cc1,16%
CCCCCCCCCCCCC(C(=O)O)C(C)C(=O)O (configuration not stated),?
CCCCCC/C(C)=C1/SC(=S)NC1=O,?
CCCCNc1nc2c(S(=O)(=O)c3ccc(C)c(C)c3)nnn2c2ccsc12,-3%
CC(Cc1cccs1)NC(=O)CCCn1nnnc1CN1CCOCC1 (configuration not stated),-8%
COC(=O)C(O)(CC(=O)Nc1ccc(C)c(F)c1)C(F)(F)F (configuration not stated),-1%

# Overlap with the part before: 3 entries, followed by the next part.
SMILES,VDR inhibitor
CCCCNc1nc2c(S(=O)(=O)c3ccc(C)c(C)c3)nnn2c2ccsc12,-3%
CC(Cc1cccs1)NC(=O)CCCn1nnnc1CN1CCOCC1 (configuration not stated),-8%
COC(=O)C(O)(CC(=O)Nc1ccc(C)c(F)c1)C(F)(F)F (configuration not stated),-1%
CCCCOC(=O)c1ccc(NC(=O)C(=O)NCCN(C)C)cc1,-27%
N#Cc1ccc(/C=C/C(=O)c2ccc3c(c2)OCO3)cc1,?
CCCCNC(=O)C1CCCNC1=O (configuration not stated),0%
O=C(NCCc1csc2nc(-c3cccc(F)c3)nn12)c1ccc(Br)o1,14%
CCOc1cccc(N(C(=O)CNC(=O)c2ccco2)C(C(=O)NCC2CCCO2)c2ccccc2)c1 (configuration not stated),-5%
Cc1cc(C)c2c(n1)nn1c(C)c(CCC(=O)NCc3ccco3)c(C)nc21,-9%
C=CCOc1ccccc1/C=c1\sc2nc(-c3oc4ccccc4c3C)nn2c1=O,-4%
Cc1ccc(S(=O)(=O)N2CCOCC2)cc1NC(=O)COC(=O)c1cccc(Cl)c1Cl,-8%
Cc1ccc(C)c(NC(=O)CCCn2nc(C)c3sc4ccccc4c3c2=O)c1,11%
Cc1ccc(C)c(N2CCN(C(=O)c3ccc(Cn4c(=O)[nH]c5ccccc5c4=O)cc3)CC2)c1,-9%
